# HTT prom inh: Primary qHTS for Identification of Small Molecule Inhibitors of Huntingtin Promoter Activity; HEK293 HTT promoter firefly luciferase reporter (activity 0% = vehicle and -100% = no light), 24 h; Potency, µM (titrated, usually from 57.5 µM), inactives show at the highest dose activity change, negative = inhibition, hits mostly inhibitors; 0.93% of 48,000 active; AID 1508623, 2021; active means well fitted inhibition curve with a large enough effect; inconclusive means small, poorly fitted or top-dose-only effect; inactive means no such curve, though single readings can be large or run the other way; further: nearly all actives have a fitted effect of over 50% in size
#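 Firefly luciferase signal from promoter-reporter HEK293 cells was scaled between vehicle (0%) and zero RLU (-100%). Compounds were tested at final concentrations of up to 57.5 uM over 24 h at 37 degrees C. PTC124 at 50 uM final served as control inhibitor.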
# PMP22 txn prim: Cell-based coincidence reporter assay to measure PMP22 gene transcription in S16 Pmp22-F2sN cells - Primary screen. S16 Pmp22-F2sN Schwann cells (luciferase reporters placed in the Pmp22 gene), FLuc/NLuc coincidence luminescence, 24 h. Potency, µM (titrated, usually from 57.5 µM), for the others: at the top dose activity change, negative = inhibition, most hits filed as inhibitors. 2% of 43,000 active; active = clear falling dose curves in both reporters; inconclusive = both reporters move, but less clearly or upward; inactive = either reporter flat; the % is the NLuc reporter signal; further: on the % scale 0 is the no-effect control and ±100 the full control effect; some results filed as inactive show a strong effect at the top dose
#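 qHTS, 1536-well. Cells seeded, compounds added by pin tool, 24 h 37C. Nano-Glo reagent 1 (lysis/FLuc), 10 min RT, read; Stop&Glo, 10 min RT, read NLuc.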
# * marks the source's active call; other numbers are inactive results; ? = inconclusive; . = no result given; & = joins results of further samples; [ ] = dose if it differs, or a comment. Potency means the concentration at half of the fitted maximal effect. A portion of the library, so the mix of outcomes need not match the whole.
# Preview, 6 compounds:
(1) CSc1ccc(/C=C/c2nc3ccccc3c(=O)n2-c2cccc(Cl)c2C)cc1
(2) O=c1c2ccccc2nc(/C=C/c2cccc3ccccc23)n1-c1ccc(Cl)cc1
(3) CCCC12CN3CC(C)(CN(C1)C3c1ccccn1)C2=O (stereo not drawn)
(4) O=C(Nc1ccc(Br)cc1C(=O)c1ccccc1Cl)c1ccc(Br)cc1
(5) Nc1ccc(N=Nc2ccccc2)cc1
(6) O=[N+]([O-])O[C@H]1CO[C@H]2[C@@H]1OC[C@H]2O[N+](=O)[O-]

assay / entry	1	2	3	4	5	6
HTT prom inh	-27%	-27%	-12%	-12%[11.5 µM]	?	-8%
PMP22 txn prim	-23%	-18%	3%	3%	.	.

# The listing, from the start:
(1) CSc1ccc(/C=C/c2nc3ccccc3c(=O)n2-c2cccc(Cl)c2C)cc1
(2) O=c1c2ccccc2nc(/C=C/c2cccc3ccccc23)n1-c1ccc(Cl)cc1
(3) CCCC12CN3CC(C)(CN(C1)C3c1ccccn1)C2=O (stereo not drawn)
(4) O=C(Nc1ccc(Br)cc1C(=O)c1ccccc1Cl)c1ccc(Br)cc1
(5) Nc1ccc(N=Nc2ccccc2)cc1
(6) O=[N+]([O-])O[C@H]1CO[C@H]2[C@@H]1OC[C@H]2O[N+](=O)[O-]

assay / entry	1	2	3	4	5	6
HTT prom inh	-27%	-27%	-12%	-12%[11.5 µM]	?	-8%
PMP22 txn prim	-23%	-18%	3%	3%	.	.

(7) Cc1cccc(-n2c(CC3C(=O)Nc4ccc(C)cc43)nc3ccccc3c2=O)c1 (stereo not drawn)
(8) CC(CCc1ccccc1)NC(C)C(O)c1ccc(O)cc1 (stereo not drawn)
(9) CC(C)(C)c1ccc(C(=O)Nc2ccc(Cl)cc2C(=O)c2ccccc2)cc1
(10) CCN[C@H](C)Cc1cccc(C(F)(F)F)c1
(11) O=C1CN=C(c2ccccc2)c2cc([N+](=O)[O-])ccc2N1
(12) C[C@H](CN1CCOCC1)C(C(=O)N1CCCC1)(c1ccccc1)c1ccccc1

assay / entry	7	8	9	10	11	12
HTT prom inh	-8%	-12%	-10%	-4%[116 µM]	-5%	?
PMP22 txn prim	?	.	2%	.	.	.

(13) Clc1ccc(CSC(Cn2ccnc2)c2ccc(Cl)cc2Cl)cc1 (stereo not drawn)
(14) CCCOC(=O)c1cncn1C(C)c1ccccc1 (stereo not drawn)
(15) CN(C)CCc1c[nH]c2cccc(O)c12
(16) CN[C@@H]1Cc2cccc3[nH]c(=O)n(c23)C1
(17) N#Cc1cc([N+](=O)[O-])ccc1NC(=O)c1cccn(Cc2cccc(F)c2)c1=O
(18) Nc1ccc(Cl)cc1C(=O)c1ccccc1F

assay / entry	13	14	15	16	17	18
HTT prom inh	?	3%	-1%[116 µM]	-3%	-11%	-16%
PMP22 txn prim	.	.	.	.	?	.

(19) Cc1ncc2n1-c1ccc(Cl)cc1C(c1ccccc1F)=NC2
(20) C[C@H]1[C@@H]2Cc3ccc(O)cc3[C@@]1(C)CCN2C
(21) CCc1ccc(-n2nc(C)c3c2NC(=O)CSC3c2ccc(OC)cc2OC)cc1 (stereo not drawn)
(22) CCC1(c2ccccc2)CCC(=O)NC1=O (stereo not drawn)
(23) CCC(C(=O)Nc1ccccc1F)N1C(=O)CN=C(c2ccccc2)c2ccccc21 (stereo not drawn)
(24) C[C@](O)(CS(=O)(=O)c1ccc(F)cc1)C(=O)Nc1ccc(C#N)c(C(F)(F)F)c1

assay / entry	19	20	21	22	23	24
HTT prom inh	13%	1%[288 µM]	22µM*	-6%	-11%	?
PMP22 txn prim	.	.	?	.	-5%	.

(25) COc1cc(CC(C)N)cc2c1OCO2 (stereo not drawn)
(26) CCCCCCCCCCCC[N+](C)(C)CCOc1ccccc1
(27) O=C1C(I)=CC(=C(c2cc(I)c(O)c(I)c2)c2ccccc2C(=O)O)C=C1I
(28) CCC(=O)OC1CCC2C3CCC4=CC(=O)CC[C@@]4(C)C3CC[C@]12C (stereo partly drawn)
(29) ClC1=C(Cl)C2(Cl)C(CBr)CC1(Cl)C2(Cl)Cl (stereo not drawn)
(30) C[C@]12CC[C@H](O)CC1=CC[C@H]1[C@H]3CCC(=O)[C@@]3(C)CC[C@@H]12

assay / entry	25	26	27	28	29	30
HTT prom inh	-1%[116 µM]	?	-4%	18%	-4%	-11%
PMP22 txn prim	.	.	.	.	.	.

(31) Cc1c(N)nc([C@H](CC(N)=O)NC[C@@H](N)C(N)=O)nc1C(=O)N[C@H](C(=O)N[C@@H](C)[C@H](O)[C@@H](C)C(=O)N[C@@H](C(=O)NCCc1nc(-c2nc(C(=O)NCCC[S+](C)C)cs2)cs1)[C@@H](C)O)C(O[C@H]1O[C@H](CO)[C@H](O)[C@@H](O)[C@@H]1O[C@H]1O[C@H](CO)[C@@H](O)[C@H](OC(N)=O)[C@H]1O)c1cnc[nH]1 (stereo partly drawn)
(32) Nc1ccc([As](=O)(O)O)cc1
(33) ClCCN1CCCC1
(34) CNCC(O)c1ccc(O)cc1 (stereo not drawn)
(35) CCCCCCCCC(=O)NCc1ccc(O)c(OC)c1
(36) Oc1ccc(Cl)cc1Cc1ccccc1

assay / entry	31	32	33	34	35	36
HTT prom inh	-15%	2%	3%	11%&6%	-6%	-1%
PMP22 txn prim	.	.	.	.	.	.

(37) CCN(CC)C(C)C(=O)c1ccccc1 (stereo not drawn)
(38) Cc1cccc(OC(C)C(=O)NCC2(N(C)C)CCCCC2)c1C (stereo not drawn)
(39) O=C(CBr)Nc1ccc(Cl)cc1C(=O)c1ccccc1F
(40) C[N+](C)(C)CCOC(=O)C(O)(c1ccccc1)c1ccccc1
(41) Nc1c(C(=O)Nc2ccc(Cl)c(C(F)(F)F)c2)sc2nc3c(cc12)N1CCC3CC1
(42) CC(=O)OC1(c2ccccc2)CCN(CCc2ccccc2)CC1

assay / entry	37	38	39	40	41	42
HTT prom inh	10%	-2%	-5%	12%	?	-22%[116 µM]
PMP22 txn prim	.	-4%	.	.	?	.

(43) C#C[C@]1(O)C=C[C@H]2[C@@H]3CCC4=CC(=O)CC[C@@H]4[C@H]3CC[C@@]21CC
(44) Cc1ccc(-n2c(/C=C\c3ccc(F)c(F)c3)nc3ccccc3c2=O)c(C)c1
(45) Cc1ccc(NC(=O)CN2C(=O)CN=C(c3ccccc3)c3ccccc32)cc1
(46) COc1ccc(OCC(=O)N2CCN(CCc3ccncc3)CC2)cc1
(47) CC(C)(C)NCC(O)c1cc(Cl)c(N)c(C(F)(F)F)c1 (stereo not drawn)
(48) Cc1nnc(NC(=O)c2cccn(Cc3ccccc3F)c2=O)s1

assay / entry	43	44	45	46	47	48
HTT prom inh	-5%	7.1µM*	-13%	-4%	2%	14%
PMP22 txn prim	.	8.9µM*	19%	4%	.	-11%

(49) O=c1[nH]c2ccccc2n1CCCN1CCC(n2c(=O)[nH]c3cc(Cl)ccc32)CC1
(50) Cc1c(C(c2ccc(Br)cc2)c2c(O)c3ccccc3oc2=O)c(=O)n(-c2ccccc2)n1C (stereo not drawn)
(51) CN1C(=S)CN=C(c2ccccc2)c2cc(Cl)ccc21
(52) O=C1CCC[C@@H]2[C@H]3CCCN4CCC[C@@H](CN12)[C@@H]34
(53) CCOc1ccc(CN(CCc2ccc3c(c2)OCO3)Cc2cccc(OC)c2)cc1
(54) CC[C@H](O)C(C[C@H](C)N(C)C)(c1ccccc1)c1ccccc1

assay / entry	49	50	51	52	53	54
HTT prom inh	-7%&-9%	?	-6%	10%	-29%	?
PMP22 txn prim	.	?	.	.	-30%	.

# A draw from above in order of number of heavy atoms, lowest first:
(33) ClCCN1CCCC1
(16) CN[C@@H]1Cc2cccc3[nH]c(=O)n(c23)C1
(39) O=C(CBr)Nc1ccc(Cl)cc1C(=O)c1ccccc1F
(26) CCCCCCCCCCCC[N+](C)(C)CCOc1ccccc1

assay / entry	33	16	39	26
HTT prom inh	3%	-3%	-5%	?
PMP22 txn prim	.	.	.	.

# Following part:
(55) CC[N+]1(C)CCCC(OC(=O)C(O)(c2ccccc2)c2ccccc2)C1 (stereo not drawn)
(56) CC(=O)N1CC(=O)Nc2ccc(F)cc2C1c1ccccc1 (stereo not drawn)
(57) Cc1cccc(OCC(=O)N2CCN(CCc3ccccn3)CC2)c1
(58) COc1ccc2c(C(=O)c3ccc(Cl)cc3)c(C)n(CC(=O)O)c2c1
(59) CC(C)(C)C(O)C(Oc1ccc(Cl)cc1)n1cncn1 (stereo not drawn)
(60) CCSc1nnc(NC(=O)c2cccn(Cc3ccccc3Cl)c2=O)s1

assay / entry	55	56	57	58	59	60
HTT prom inh	-2%	-16%	-16%	-15%	-14%[116 µM]	7%
PMP22 txn prim	.	3%	9%	.	.	-12%

(61) Cc1ccc(-n2c(/C=C\c3ccc(F)cc3)nc3ccccc3c2=O)cc1Cl
(62) Cc1cccc(Cn2cccc(C(=O)Nc3ccc(F)cc3F)c2=O)c1
(63) Clc1ccccc1C(c1ccccc1)(c1ccccc1)n1cccn1
(64) COc1cccc(C2SCC(=O)Nc3c2c(C)nn3-c2ccc(C)c(Cl)c2)c1OC (stereo not drawn)
(65) Nc1c(C(=O)Nc2ccc(F)c(Cl)c2)sc2nc3c(cc12)N1CCC3CC1
(66) C[C@]12CC[C@H]3[C@@H](CCC4=CC(=O)CC[C@@H]43)[C@@H]1CC[C@@H]2O

assay / entry	61	62	63	64	65	66
HTT prom inh	-6%	28µM*	-1%	?	?	3%
PMP22 txn prim	-17%	?	.	?	?	.

(67) COc1ccc(C(=O)N2CCCC2=O)cc1
(68) O=C1CC(c2ccc(Br)cc2)c2c(c3ccccc3oc2=O)O1 (stereo not drawn)
(69) COc1ccc(OCC(=O)N2CCN(Cc3ccc(SC)cc3)CC2)cc1
(70) O=C(Nc1ccc(Br)cc1)c1cc(Br)cc(Br)c1O
(71) C1CN2CCC1CC2
(72) Cc1ccc(-n2c(/C=C/c3cc(Br)cs3)nc3ccccc3c2=O)cc1C

assay / entry	67	68	69	70	71	72
HTT prom inh	0%&14%	-19%	?	25%	0%	-30%
PMP22 txn prim	.	-43%	?	.	.	-17%

(73) CCn1c(CN2CCN(C)CC2)nc2ccccc21
(74) C[C@]12Cc3cn[nH]c3C[C@@H]1CC[C@@H]1[C@@H]2CC[C@@]2(C)[C@H]1CC[C@]2(C)O
(75) Clc1ccc(C(c2ccc(Cl)cc2)C(Cl)(Cl)Cl)cc1
(76) COc1ccc(-c2nc(CN3C(=O)CN=C(c4ccccc4)c4ccccc43)c(C)o2)cc1OC
(77) Cc1ccccc1-n1c(/C=C/c2ccc(N(C)C)cc2)nc2ccccc2c1=O
(78) N#Cc1cc2c(nc1SCC(=O)Nc1ccc(F)c(Cl)c1)C1CCN2CC1

assay / entry	73	74	75	76	77	78
HTT prom inh	-13%	2%	-7%	-14%	-22%	-21%
PMP22 txn prim	7%	.	.	?	?	-20%

(79) Cc1ccc(C(=O)Nc2ccccc2)cc1S(=O)(=O)N1CCCC1
(80) CCCCCCCCCC(CC)c1ccc(S(=O)(=O)O)cc1 (stereo not drawn)
(81) O=C(COc1ccccc1Cl)N1CCN(CCc2ccncc2)CC1
(82) COc1cccc(C(=O)CCN[C@@H](C)[C@H](O)c2ccccc2)c1
(83) COP(=S)(OC)SCN1C(=O)c2ccccc2C1=O
(84) C[C@]12CC[C@H]3[C@@H](CCC4=CC(=O)CC[C@@H]43)[C@@H]1CC[C@@H]2OC(=O)CCc1ccco1

assay / entry	79	80	81	82	83	84
HTT prom inh	-19%	12%[116 µM]	-18%	7%	-8%	1%
PMP22 txn prim	-29%	.	-21%	.	.	.

(85) COc1cccc(/C=C/c2nc3ccccc3c(=O)n2-c2ccc(Cl)cc2)c1OC
(86) COCC1(CO)C(=O)C2CCN1CC2 (stereo not drawn)
(87) O=C1CC(c2ccc(C(F)(F)F)cc2)c2c(c3ccccc3oc2=O)O1 (stereo not drawn)
(88) Cc1cccc(-n2c(/C=C/c3c[nH]c4ccccc34)nc3ccccc3c2=O)c1
(89) Cc1c(Cl)cccc1NC(=O)CN1C(=O)C(C)N=C(c2ccccc2)c2ccccc21 (stereo not drawn)
(90) CN1C(=O)CN=C(c2ccccc2)c2cc([N+](=O)[O-])ccc21
(91) O=C1OC(CCN2CCCCC2)OC1(c1ccccc1)c1ccccc1 (stereo not drawn)
(92) C[C@]12CCC(=O)C=C1CC[C@@H]1[C@@H]2CC[C@]2(C)C(=O)CC[C@@H]12

assay / entry	85	86	87	88	89	90	91	92
HTT prom inh	?	-18%	-9%	?	-3%	1%	8%	5%
PMP22 txn prim	-13%	.	-8%	?	?	.	.	.

# Screens (PubChem)
